TRPML1 inh: qHTS for Inhibitors of the Human Mucolipin Transient Receptor Potential 1 (TRPML1); AID 624415, 2012; Mucolipin-1 (Homo sapiens), Q9GZU1; TRPML1-inducible cells, Ca2+ dye fluorescence, FDSS; active compounds read low; inhibition of EC80 agonist-evoked calcium signal; hit rate 0.02% among 390,000; activity change, negative = inhibition, % (no concentration beside the values); in the data active means activity change below about -50%; inconclusive means about -30% to -50%; inactive means above about -30%;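 also: stimulus is agonist 54-4 at its EC80 concentration; % is scaled to controls: 0 for no effect and ±100 for the full control effect; compound concentration not given in the record; the text of the record puts the active cut at -80%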
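Calcium fluorescence in TRPML1-DL cells induced overnight with Tet: a 110 s read after compound pin addition, then a 110 s antagonist read after challenge with 54-4 at 4 uM final (EC80).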
PINK1 modulator: A Quantitative High throughput Screen to Identify Chemical Modulators of PINK1 Expression; Potency, µM (titrated, usually from 76.6 µM), for the others: top-dose activation (PINK1 increase), most hits filed as activators; AID 624263, 2012; hit rate 0.2% among 410,000; PINK1 immunofluorescence, high-content cytometry, 24 h; active = well fitted activation curve with a large enough effect; inconclusive = small, poorly fitted or top-dose-only effect; inactive = flat fitted curve, though single readings scatter; cell line not stated here;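 also: potency is read from the fitted curve at half-maximal effect; % of control where 0% means no effect; nearly all actives have a fitted effect of over 65% in size; a mitochondrial uncoupler was the plate control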
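Decision-based qHTS: stable cells, 24 h exposure to five compound concentrations, CCCP as control. Fixed cells stained for PINK1 plus nuclear, mitochondrial and cell markers, cytometer read.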
TRPML1 ag: qHTS for Agonists of the Human Mucolipin Transient Receptor Potential 1 (TRPML1); activation, % (concentration not given with the values); TRPML1-expressing cells, Ca2+ dye fluorescence, FDSS; host cell line not named in the record; reference of the full effect not given here; Mucolipin-1 (Homo sapiens), Q9GZU1; AID 624414, 2012; hit rate 0.12% among 410,000; in the data active = activation above about 50%; inconclusive = about 30% to 50%; inactive = below about 30%; also: 0% is about no effect; the text of the record puts the active cut at 80%
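In this qHTS format, compounds were pin-transferred onto Ca8-dye-loaded TRPML1-DL cells induced with Tet overnight, and intracellular Ca2+ fluorescence was recorded kinetically for 110 s after a 10 s baseline. A subsequent 4uM final 54-4 (EC80) addition followed by a second 110 s read served as the antagonist phase.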
D2 ag: Beta-Arrestin HTS for Positive Allosteric Modulators of the Human D2 Dopamine Receptor: Agonists; hit rate 0.084% among 360,000; AID 624465, 2012; activation, % (test concentration not listed); DiscoveRx PathHunter D2 beta-arrestin, luminescence, 90 min; 100% = 57 uM dopamine signal; in the data active = activation above about 40%; inconclusive = about 15% to 40%; inactive = below about 15%; also: compound concentration not given in the record; the text of the record calls up to 30% inactive
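Agonist mode: compounds alone added to overnight-plated D2 PathHunter cells for 90 min at 37 C, with 57 uM final dopamine (EC100) defining full response. Beta-arrestin recruitment detected by chemiluminescent reagent, read after 1 h at ambient temperature.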
CtBP-E1A blk: qHTS Assay for Inhibitors of the CtBP/E1A Interaction; CtBP / adenovirus E1A interaction (AlphaScreen); AlphaScreen GST-E1A/His-CtBP binding, 1536-well; active compounds read low; control for the full effect not named in the record; activity change, % (test concentration not listed); hit rate 0.49% among 340,000; AID 651724, 2012; in the data active means activity change below about -65%; inconclusive means about -30% to -65%; inactive means above about -30%; also: % is scaled to controls: 0 for no effect and ±100 for the full control effect
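In 5 uL wells, 23 nL compound meets equimolar GST-E1A and His-CtBP (5X stock 125 nM each) for 2 h, 37 °C. Beads (5X, 50 ug/mL) then 1 h, 37 °C, dark.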
Six1-Eya2 blk: qHTS Assay for Inhibitors of the Six1/Eya2 Interaction; Homeobox protein SIX1 (Homo sapiens) + Protein phosphatase EYA2 (Homo sapiens), …; AlphaScreen GST-Six1/His-Eya2 binding, biochemical; active compounds read low; control for the full effect not named in the record; activity change, % (no concentration beside the values); hit rate 0.56% among 360,000; AID 651725, 2012; in the data active = activity change below about -65%; inconclusive = about -30% to -65%; inactive = above about -30%; also: % is scaled to controls: 0 for no effect and ±100 for the full control effect
Target sequence (O00167 whole entry, looked up): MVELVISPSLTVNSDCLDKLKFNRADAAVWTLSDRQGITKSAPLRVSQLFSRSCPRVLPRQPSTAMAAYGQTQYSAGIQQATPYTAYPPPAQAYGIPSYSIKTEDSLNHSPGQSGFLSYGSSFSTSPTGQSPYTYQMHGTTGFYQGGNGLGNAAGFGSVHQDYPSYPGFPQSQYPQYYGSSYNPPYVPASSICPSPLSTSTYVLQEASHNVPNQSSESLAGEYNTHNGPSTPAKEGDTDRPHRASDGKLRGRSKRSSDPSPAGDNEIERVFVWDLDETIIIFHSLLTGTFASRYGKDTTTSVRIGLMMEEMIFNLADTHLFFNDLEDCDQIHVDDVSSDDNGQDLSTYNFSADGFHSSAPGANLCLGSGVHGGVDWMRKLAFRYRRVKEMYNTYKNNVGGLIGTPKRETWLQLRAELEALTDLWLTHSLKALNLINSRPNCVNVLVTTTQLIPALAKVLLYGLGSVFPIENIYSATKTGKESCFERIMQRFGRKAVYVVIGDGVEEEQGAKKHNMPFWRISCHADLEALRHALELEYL
Target sequence (Q15475 whole entry, looked up): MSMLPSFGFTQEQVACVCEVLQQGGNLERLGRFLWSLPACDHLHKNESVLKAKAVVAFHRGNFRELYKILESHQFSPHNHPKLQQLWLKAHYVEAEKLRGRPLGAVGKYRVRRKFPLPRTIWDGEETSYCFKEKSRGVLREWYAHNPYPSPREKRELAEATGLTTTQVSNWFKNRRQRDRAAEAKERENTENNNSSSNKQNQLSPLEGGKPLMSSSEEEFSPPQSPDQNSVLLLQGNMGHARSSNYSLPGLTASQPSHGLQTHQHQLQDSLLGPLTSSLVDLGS
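AlphaScreen luminescence read after one hour at 37 °C in darkness. Pin-transferred compounds met GST-Six1 and His-Eya2 protein (5X stock 250 nM/500 nM) plus glutathione donor and Ni-chelate acceptor beads (5X, 50 ug/mL).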
Active calls of the source: *; ? = inconclusive; . = no result given; & = joins results of further samples; [ ] = another dose, or the depositor's remark.

smiles,TRPML1 inh,PINK1 modulator,TRPML1 ag,D2 ag,CtBP-E1A blk,Six1-Eya2 blk
Cc1ccc(C)c(-c2nnc(NC(=O)CCS(=O)(=O)c3ccccc3)o2)c1,-9,4.2%,-0.1,-9.4,5,-1
CN(C)c1nc(N)nc(/C(C#N)=C/C2CC3C=CC2C3)n1 (stereo not given),-9,0.7%,-0.1,-1.5,-13,-8
CN(C)S(=O)(=O)Oc1ccc(C(=O)Nc2ccc([N+](=O)[O-])cc2)cc1,24,1.2%,-0.1,-2.7,.,3
O=C(c1ccc(C(F)(F)F)cc1)C1CCCN(C(=O)CN2C(=O)CSC2=O)C1 (stereo not given),-1,-1.6%,-0.3,-1.2,-10,7
COc1ccc(CCNC(=O)C2CCN(S(=O)(=O)N3CCC4(CC3)OCCO4)CC2)cc1OC,-10,7.9%,0.6,-0.6,1,6
O=S(=O)(NCCc1ccccc1)c1cccc(S(=O)(=O)N2CCOCC2)c1,0,0.4%,0.2,2.7,-1,11
Cc1ccc(C)c(S(=O)(=O)N2CCN(C(=O)c3cccn3C)CC2)c1,-10,-0.4%,-0.6,-0.9,-27,-11
CN1/C(=C\C(=O)COC(=O)Cn2nnc(-c3ccccc3)n2)C(C)(C)c2ccccc21,45,-0.5%,2.2,-3.8,6,0
CN(C)CCN(C(=O)c1ccc2c(c1)CCCC2)c1nc2c(F)cccc2s1,2,4.6%,0.0,14,0,0
CCCCc1ccc(S(=O)(=O)NC(=O)C2(C)CCN2C(=O)CCc2cccs2)cc1 (stereo not given),.,0.2%,-0.5,0.8,1,-2
O=C(NCc1ccccn1)C(=O)NCC1OCCCN1S(=O)(=O)c1ccc(F)cc1 (stereo not given),25,-3.1%,0.7,0.2,-18,5
CCCS(=O)(=O)N1CCN(Cc2ccccc2C(F)(F)F)CC1,6,.,-0.1,-0.5,8,1
C[C@@H]1O[C@@H](O[C@H]2[C@H](O[C@H]3C[C@]4(C)C(C[C@@H](O)C5C([C@]6(C)CC[C@@H](C(C)(C)O)O6)CC[C@]54C)[C@@]4(C)CC[C@H](O)C(C)(C)C34)O[C@H](CO)[C@@H](O)[C@@H]2O)[C@H](O)[C@H](O)[C@H]1O (stereo not given in full),1,1.0%,-0.8,0.2,-1,1
O=C(CCCN1CCC(c2ccccc2)C1)c1ccc2c(c1)OCCO2 (stereo not given),25,.,-0.2,-1.3,14,-5
CCN(CC)c1ccc(C(=S)N2CCN(c3ccccc3)CC2)cc1,6,-1.2%,0.8,-3.4,-10,-15

smiles,TRPML1 inh,PINK1 modulator,TRPML1 ag,D2 ag,CtBP-E1A blk,Six1-Eya2 blk
Cc1ccc2c(c1)c1c(n2CC(O)CNC2CCCC2)CCCC1 (stereo not given),-3,-0.5%,0.7,-2.5,.,?
Cc1ccc(Cn2nnc3c(=O)[nH]c(C4CCN(C(=O)c5cccs5)CC4)nc32)cc1,4,17%[38.3 µM],-0.4,-1.6,-5,?
CCOc1ccc(CNC(=O)CS(=O)(=O)Cc2nc(-c3ccc(OC)cc3)oc2C)cc1,-8,6.1%,-0.3,-2.9,0,2
Cc1nnc(SCc2cccc(Cl)c2)n(N)c1=O,-12,-1.0%,-0.6,-5.1,0,16
COc1cc(/C=N/NC(=O)Cn2nnc3ccccc32)ccc1O,-12,-0.9%,0.3,0.3,.,-1
COc1ccccc1N1CCN(C(=O)CSc2nc3ccccc3o2)CC1,16,-0.7%[38.3 µM],0.1,2.8,4,-1
CCOC(=O)c1nc(NNC(=O)c2ccc([N+](=O)[O-])cc2)sc1C,-2,?,-0.5,-1.8,-17,-20
COc1ccc(Cn2c(=O)sc3ccccc3c2=O)cc1,22,0.5%,0.7,-3.7,40,10
C=CCn1cc(-c2cccc(Cl)c2)cc(C#N)c1=O,-8,0.0%,1.7,-4.8,3,26
CCCc1cc(=O)[nH]c(Nc2cc(Cl)cc(Cl)c2)n1,4,?,-0.4,.,.,.
CSc1ccccc1C(=O)Nc1cc([N+](=O)[O-])ccc1C,1,0.7%,-1.1,-4.4,4,0
CC1CCC(NS(=O)(=O)c2ccc3c(c2)CC(=O)N3)CC1 (stereo not given),-1,-1.0%,1.8,-1.7,.,4
O=C(N/N=C/c1ccoc1)c1cccc([N+](=O)[O-])c1,15,2.1%,0.8,-3.8,0,1
CCCN(Cc1nnc(-c2cccs2)o1)C(=O)CN1C(=O)NC2(CCCCC2C)C1=O (stereo not given),12,-0.5%,-0.2,-3.6,.,4
CCOc1cc(/C=C2\CN(CC)C/C(=C\c3ccc(O)c(OCC)c3)C2=O)ccc1O,18,-1.3%,1.8,-5.5,4,3

smiles,TRPML1 inh,PINK1 modulator,TRPML1 ag,D2 ag,CtBP-E1A blk,Six1-Eya2 blk
Cc1ccc2nc(SCc3nnc(-c4ccccc4Br)o3)[nH]c2c1,4,1.2%,-0.3,-1.6,0,-9
COc1ccc(Cl)cc1-c1cc(C(=O)Nc2ccccc2)[nH]n1,.,13%,-0.3,-2.7,-10,-1
Cc1c(-c2cc(C(=O)O)on2)cnn1C,18,4.0%,-0.4,1.4,1,15
CCOC(=O)c1cnc2c(ccc3ccccc32)c1Nc1cccc(OC)c1,-10,6.9%,-0.8,.,.,.
CCOc1ccc(C(=O)NCC(=O)NC(C)CCc2ccccc2)cc1OCC (stereo not given),-11,3.9%,0.4,-9.5,-11,-6
O=C(c1ccncc1)N(c1ccc2oc3c(c2c1)CCCC3)S(=O)(=O)c1ccc(F)cc1,-2,2.3%,0.0,4.4,-7,-7
C=CCn1c(SCC(=O)Nc2nc(C)cs2)nnc1C(CO)NC(=O)c1ccccc1 (stereo not given),-1,-0.7%,0.5,0.9,9,6
COc1cccc(NC(=O)C2CC(=O)N(C)C(=Nc3cccc(F)c3)S2)c1 (stereo not given),50,.,1.7,0.6,-4,-1
Cc1cc(C)n(-c2nnc3c4ccccc4n(C)c3n2)n1,4,0.2%,0.2,1.2,-22,-14
COCC(=O)N/N=C\c1ccc(OC/C=C/c2ccccc2)c(OC)c1,-3,-0.9%,1.7,-3.9,-3,6
O=[N+]([O-])c1ccc(C2(O)CN(c3ccccc3)C3=[N+]2CCS3)cc1 (stereo not given),10,1.3%,-0.1,-0.2,-4,-12
COC(=O)C1=CN(Cc2ccc(OC)c(OC)c2)C=C(C(=O)OC)C1c1ccc(F)cc1,23,-2.7%,3.1,11,42,42
O=C(c1ccccc1Sc1ccc([N+](=O)[O-])cc1Cl)N1CCOCC1,8,0.6%,0.6,1.0,4,-5
C/C(=N\Nc1cc(N2CCOCC2)ncn1)c1ccccc1,-9,-1.7%,-1.5,0.5,.,2
CCc1ccccc1NC(=O)CCNS(=O)(=O)c1ccc2c(c1)CCC(=O)N2,-3,-0.7%,-1.1,-1.4,3,2

smiles,TRPML1 inh,PINK1 modulator,TRPML1 ag,D2 ag,CtBP-E1A blk,Six1-Eya2 blk
COc1ccc(NC(=O)COC(=O)c2ccc(F)cc2F)cc1,3,0.9%,-1.0,-2.5,-2,9
Cc1cc(Oc2ccc(N)cn2)ccc1Cl,-14,3.5%,-0.9,-9.0,-2,-1
CC[C@@H](C)C(NC(=O)OC(C)(C)C)c1cn([C@@H](Cc2cc3ccccc3[nH]2)C(=O)N2CCN(C(=O)OC(C)(C)C)CC2)nn1 (stereo not given in full),1,-0.4%,-0.7,0.7,-1,-1
O=C(CCCOc1ccc(Cl)cc1Cl)N/N=C/c1ccc(Cl)cc1,12,0.2%,1.8,-1.0,0,2
Cc1cccc(-n2c(SCC(=O)Nc3cccc(S(=O)(=O)NC4=NCCCCC4)c3)nc3ccccc3c2=O)c1C,-3,2.3%,1.2,0.1,24,1
COC(=O)c1ccccc1NC(=O)c1c(C)oc2ncn(C)c(=O)c12,15,2.7%,-0.4,.,.,.
CCOc1cc(C(=S)N2CCOCC2)ccc1OS(=O)(=O)c1ccc(NC(C)=O)cc1,17,.,0.1,-1.4,-2,-1
C[C@@H]1CCCCO[C@H](CN(C)Cc2ccc(C(F)(F)F)cc2)[C@@H](C)CN([C@H](C)CO)C(=O)c2cc(NS(=O)(=O)c3cn(C)cn3)ccc2O1,-15,2.0%,-0.1,-9.3,1,5
C=CCN1c2ccccc2[C@]23C[C@@H](C(=O)OC)N(C(=O)NC4CCCC4)C2=NC(C(=O)OC)=C(C(=O)OC)[C@H]13,-10,0.4%,1.1,-3.7,-17,-13
CCOC(=O)c1ccc(-c2ccc(N3C(c4ccsc4)=Cc4ccc(F)cc4C3c3c[nH]c4ccc(C#N)cc34)cc2)cc1F (stereo not given),.,-0.5%,0.2,.,-7,-6
Cc1cc(C)c(NC(=O)CN2C(=O)CCn3nc(-c4cccn4C)cc32)c(C)c1,15,4.3%,0.0,.,.,.
C=C(C)Cn1c2ccc(NC(=S)NCc3ccccc3F)cc2c(=O)n1C,.,1.6%,-0.9,103*,-9,4
Cc1cccc(CSC(Nc2ccc(F)cc2)=C(C#N)C#N)c1,-2,?,0.0,-1.6,-3,0
COc1cccc(CNC(=O)CCn2ccc3cc(S(=O)(=O)N4CCCC4)ccc32)c1,15&-4,1.7%&-0.7%,-0.7&-0.5,4.7,13,10
CCOC(=O)c1cc(-c2ccc(OC)cc2)nn1Cc1ccccc1,50,4.9%,4.2,.,.,.

smiles,TRPML1 inh,PINK1 modulator,TRPML1 ag,D2 ag,CtBP-E1A blk,Six1-Eya2 blk
Cc1cc(OCC(=O)NCc2ccccn2)c2c(C)cc(=O)oc2c1,30,-0.8%,1.0,-0.3,11,0
O=C1CC(c2ccsc2)c2ccc3ccccc3c2N1 (stereo not given),46,4.0%,0.8,-3.0,-2,-9
CC(C)NC(=O)Cn1nnc(-c2ccc(Cl)cc2)n1,-15,2.2%,0.0,-3.2,2,10
CCn1c(CC(=O)Nc2ccc(F)cc2)nnc1SCC(=O)NC1=NCCS1,12,0.8%,-0.3,0.4,-6,-23
COc1ccccc1CNC(=O)C1CCN(S(=O)(=O)N2CCCCC2)CC1,89,-1.1%[38.3 µM],-0.1,-0.5,9,2
